# From PubChem
# SARS PLpro yeast: qHTS of Yeast-based Assay for SARS-CoV PLP | Potency, µM (titrated, usually from 32.9 µM), for inactives: top-dose activity, positive = growth rescue | S. cerevisiae expressing SARS-CoV PLpro, growth rescue; control for the full effect not named in the record | hit rate 0.19% among 330,000; active means well fitted rising curve with a large enough effect; inconclusive means small, poorly fitted or top-dose-only effect; inactive means no such curve, though single readings can be large or run the other way; further: 0% is about no effect; nearly all actives have a fitted effect of over 55% in size; growth read by luminescence after 48 h
# Cruzain inh Det: qHTS Assay for Promiscuous and Specific Inhibitors of Cruzain (with detergent). Cruzipain (Trypanosoma cruzi), P25779. purified cruzain, Z-FR-AMC fluorescence, 0.01% Triton. Potency, µM, inactives show max response, negative = inhibition, actives largely listed as inhibitors. hit rate 0.43% among 200,000. AID 1478, 2009;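 further: plate controls were neutral wells for no effect and buffer without enzyme for full effect; nearly all actives have a fitted effect of over 40% in size; top concentration of the series not given in the record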
# Target sequence (P25779 123-467 limits assumed): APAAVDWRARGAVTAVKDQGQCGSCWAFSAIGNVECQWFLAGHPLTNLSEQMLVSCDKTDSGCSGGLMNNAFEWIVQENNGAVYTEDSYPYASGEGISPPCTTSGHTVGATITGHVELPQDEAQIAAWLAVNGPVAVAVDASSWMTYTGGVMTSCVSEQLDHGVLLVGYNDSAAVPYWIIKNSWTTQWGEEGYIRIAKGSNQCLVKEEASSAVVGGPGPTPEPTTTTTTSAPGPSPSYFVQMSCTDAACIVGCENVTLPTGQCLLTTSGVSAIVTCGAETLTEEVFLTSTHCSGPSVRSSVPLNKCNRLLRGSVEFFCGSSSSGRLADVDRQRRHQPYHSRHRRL
#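 Purified cruzain (1.5 nM final) was preincubated with compounds for 15 min at room temperature in 100 mM sodium acetate pH 5.5, 5 mM DTT, 0.01% Triton X-100. Reaction started with 2 uM Z-FR-AMC; AMC fluorescence change over 60 s gave activity.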
# RE007 growth inh: qHTS Assay for Inhibitors of the HIV-1 protein Vpr | S. pombe RE007 Vpr strain, BacTiter-Glo ATP luminescence, 24 h; control for the full effect not named in the record | Potency, µM (highest dose often 92.2 µM), for the others: at the top dose activity change, negative = less growth | hit rate 0.21% among 360,000; active = well fitted falling curve with a large enough effect; inconclusive = small, poorly fitted or top-dose-only effect; inactive = no such curve, though single readings can be large or run the other way;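 further: on the % scale 0 is the no-effect control and ±100 the full control effect; nearly all actives have a fitted effect of over 50% in size; the assay follows cell death caused by Vpr and the record does not say whether a fall means rescue or toxicity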
#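 Fission yeast strain RE007, carrying one chromosomally integrated HIV-1 vpr copy, was seeded at OD 0.01 in PMG+AL medium with 23 nL pinned compound. After 24 h at 30 °C and 99% humidity, viability was read by BacTiter-Glo luminescence.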
# Lassa entry inh: qHTS for Inhibitors of binding or entry into cells for Lassa Virus | Lassa virus pseudotype entry inhibition, cell reporter; control for the full effect not named in the record | Potency, µM (doses to about 37.9 µM), inactives show at the top dose activity change, negative = inhibition, actives largely listed as inhibitors | hit rate 1.2% among 300,000 | AID 540256, 2011; active means well fitted inhibition curve with a large enough effect; inconclusive means small, poorly fitted or top-dose-only effect, or effect the other way; inactive means flat fitted curve, though single readings scatter; tested in HEK293 cells; further: on the % scale 0 is the no-effect control and ±100 the full control effect; nearly all actives have a fitted effect of over 50% in size; luciferase read-out
# Marburg entry inh: qHTS for inhibitors of binding or entry into cells for Marburg Virus | Marburg virus pseudotyped entry inhibition, cell reporter; control for the full effect not named in the record; about a third of the inactives were read at about 46 µM | Potency, µM (highest dose often 37.8 µM), for inactives: at the top dose activity change, negative = inhibition, hits mostly inhibitors | hit rate 1.8% among 300,000 | AID 540276, 2011; active = well fitted inhibition curve with a large enough effect; inconclusive = small, poorly fitted or top-dose-only effect, or effect the other way; inactive = flat fitted curve, though single readings scatter; tested in HEK293 cells; about a fifth of its hits are not listed in these tables; further: on the % scale 0 is the no-effect control and ±100 the full control effect; luciferase read-out
# StopGo reporter: High Throughput Screening for Foot and Mouth Disease Virus Antivirals; human cells with a luciferase reporter of 2A StopGo recoding; control for the full effect not named in the record; Potency, µM (series often up to 57.9 µM), for inactives: at the top dose signal change, negative = less light; hit rate 1.2% among 410,000; AID 1159524, 2015; active = well fitted falling curve with a large enough effect; inconclusive = small, poorly fitted or top-dose-only effect; inactive = no such curve, though single readings can be large or run the other way; tested in HEK293T cells; further: on the % scale 0 is the no-effect control and ±100 the full control effect; nearly all actives have a fitted effect of over 45% in size; luciferase light after 4 h
# NS1 inh: qHTS Assay for Inhibitors of Influenza NS1 Protein Function. S. cerevisiae slowed by influenza A NS1, growth recovery by OD600. Potency, µM (titrated, usually from 46.1 µM), without a hit: top-dose activity, positive = more growth. hit rate 0.4% among 270,000. AID 2326, 2010; active means well fitted rising curve with a large enough effect; inconclusive means small, poorly fitted or top-dose-only effect; inactive means no such curve, though single readings can be large or run the other way; further: nearly all actives have a fitted effect of over 50% in size
#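 Recovery from NS1-induced slow growth read by OD600 in budding yeast switched to galactose assay medium (pH 6.0, -URA) at 1:100 dilution. Compound 23 nl per well; the matching strain lacking NS1 serves as control.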
# Cruzain noTriton: qHTS Assay for Promiscuous and Specific Inhibitors of Cruzain (without detergent). purified cruzain, Z-FR-AMC fluorescence, no detergent. Potency, µM, for inactives: max response, negative = inhibition, actives largely listed as inhibitors. hit rate 2.3% among 200,000. AID 1476, 2009;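 further: plate controls were enzyme without inhibitor for no effect and buffer without enzyme for full effect; nearly all actives have a fitted effect of over 40% in size; top concentration of the series not given in the record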
#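 Detergent-free condition (0.00005% Triton X-100) in acetate buffer pH 5.5 with DTT. 1.5 nM enzyme and compound were pre-mixed 15 min, then 2 uM Z-FR-AMC substrate added; reaction progress from fluorescence change between first and third reads (60 s).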
# The depositor's hits bear a star; ? = inconclusive; · = no result given; [ ] = another dose, or the depositor's remark. Unless noted, the call rests on the fitted dose curve; in most records, active means well fitted curve in the direction sought with a large enough effect; inconclusive means small, poorly fitted or top-dose-only effect, or another doubt; inactive means no such curve, though single readings can be large; an effect the other way counts as inactive or inconclusive. Potency means the concentration at half of the fitted maximal effect. Outcome played no part in choosing rows; 4.6% or so of the library scored in one or more.
SMILES,SARS PLpro yeast,Cruzain inh Det,RE007 growth inh,Lassa entry inh,Marburg entry inh,StopGo reporter,NS1 inh,Cruzain noTriton
CCn1ncc(/C=N\NC(=O)COc2ccccc2)c1C,-9%,1.2%,2%,-1%,-19%,17%,1%,-15%
O=C(NCCc1ccccc1)c1ccc2c(c1)N(Cc1ccccc1Cl)C(=O)c1ccccc1S2,·,-0.2%,·,-26%[46.1 µM],·,-2%,·,?
O=C(Nc1ccccc1Cl)C1(c2ccccc2)CC1(Cl)Cl (stereo not given),-23%,-3.0%,-16%,-5%,4%,0%,-17%,0%
N#Cc1nc(Cc2cccc3ccccc23)oc1NCc1ccc2c(c1)OCO2,-1%,-3.9%,4%,-7%,-13%,?,-64%,-25%
O=C(O)C1CCC(N2C(=O)c3cccc([N+](=O)[O-])c3C2=O)CC1 (stereo not given),-1%,·,-7%,?,0%,4%,7%,·
COc1ccccc1NS(=O)(=O)c1ccc2oc(=O)ccc2c1,-2%,·,5%,?,?,47%[activator],2%,·
CCOCCCNC(=O)c1c(-c2ccccc2)noc1C,-9%,-1.9%,-2%,4%,?,23%,-3%,-7%
O=C(NCC1CCCO1)C1CCCN1C(=O)Nc1ccc(Cl)c(Cl)c1 (stereo not given),0%,·,-4%,0%[46.1 µM],?,-1%,7%,·
CC(C)c1ccc(/C=N/NC(=O)c2cccc(S(=O)(=O)N3CCOCC3)c2)cc1,3%,·,-9%,-12%,20%[46.1 µM],-15%,·,·
Cc1ccc(S(=O)(=O)N2CCC(C(=O)Nc3cccnc3)CC2)cc1,15%,·,6%,8%,2%,0%,·,·
CCCCCN1CC(O)=C(c2nc(-c3ccc(Cl)cc3)cs2)C1=N,3%,4.3%,15%,29%,17%,23%,?,5µM*
CCC(C(=O)NCCc1ccc(OC)cc1OC)n1nc(C)n2c(cc3occc32)c1=O (stereo not given),1%,·,-7%,-8%[46.1 µM],-3%[46.1 µM],0%,6%,·
O=C(CC1N=C2c3ccccc3N=C(SCc3ccccc3F)N2C1=O)NCc1cccs1 (stereo not given),·,-1.8%,·,13%[46.1 µM],·,-16%,·,16%
CCn1c(SCC(=O)Nc2ccc(F)cc2)nc2ccccc2c1=O,11%,·,1%,·,·,10%,-2%,·
CCOC(=O)CCC(=O)Nc1ccccc1C(N)=O,3%,5.4%,9%,7%,-15%,-18%,5%,11%
Cc1ccccc1NC(=O)c1ccc(F)c(S(=O)(=O)N2CCc3ccccc3C2)c1,·,0.2%,·,?,·,-25%,·,?
O=C(CN1CCC(NC(=O)c2ccccc2F)CC1)Nc1ccc2c(c1)OCO2,0%,·,11%,·,·,-21%,2%,·
Cc1ccc2oc3c(c(=O)c2c1)C(c1cccc(Cl)c1)N(CCCN1CCOCC1)C3=O (stereo not given),-1%,0.9%,1%,·,-2%,-12%,-7%,-7%
O=C(/C=C/c1ccccc1)N1CCCN(C(=O)/C=C/c2ccccc2)CC1,4%,0.2%,8%,14%,-1%,6%,0%,1%
O=C(COC(=O)c1cc(-c2ccc(Cl)s2)nc2ccccc12)NCc1ccco1,-28%,20µM*,0%,14%,?,-18%,15%,13%
Nn1c(SCC(=O)Nc2ccc3c(c2)OCO3)nnc1C1CC1,6%,3.3%,14%,-13%,1%[46.1 µM],-12%,1%,2%
CCCNc1nc2c(c(=O)[nH]c(=O)n2C)n1CCc1ccccc1,-4%,-4.7%,-1%,·,·,-14%,7%,-11%
CC(C)CN(C(=O)CN(C)S(=O)(=O)c1ccc(Cl)cc1)C1CCS(=O)(=O)C1 (stereo not given),1%,·,-10%,-8%,-2%,-8%,-3%,·
CC1CCCCC12NC(=O)N(CC(=O)Nc1cccnc1Cl)C2=O (stereo not given),3%,·,2%,1%,?,-7%,10%,·

# Copied from the entries so far, 3 compounds:
SMILES,SARS PLpro yeast,Cruzain inh Det,RE007 growth inh,Lassa entry inh,Marburg entry inh,StopGo reporter,NS1 inh,Cruzain noTriton
O=C(CC1N=C2c3ccccc3N=C(SCc3ccccc3F)N2C1=O)NCc1cccs1 (stereo not given),·,-1.8%,·,13%[46.1 µM],·,-16%,·,16%
CCn1c(SCC(=O)Nc2ccc(F)cc2)nc2ccccc2c1=O,11%,·,1%,·,·,10%,-2%,·
CCOC(=O)CCC(=O)Nc1ccccc1C(N)=O,3%,5.4%,9%,7%,-15%,-18%,5%,11%

# Further structures follow.
SMILES,SARS PLpro yeast,Cruzain inh Det,RE007 growth inh,Lassa entry inh,Marburg entry inh,StopGo reporter,NS1 inh,Cruzain noTriton
COc1ccccc1N1CCN(C(=O)CCN2C(=O)c3cccc4cccc(c34)C2=O)CC1,1%,·,-19%,-12%,16%[46.1 µM],-28%,18%,·
COC(=O)CCC(C)C1CCC2C3CCC4CC(O)CCC4(C)C3=CC(=O)C12C (stereo not given),·,·,-2%,?,?,?,·,·
COC(C[C@@H]1O[C@@H]1[C@@H](O)COCc1ccccc1)OC,0%,·,-15%,·,·,-15%,5%,·
COc1ccccc1C(=O)Nc1nnc(-c2ccccc2)s1,-11%,·,-2%,·,·,35%[activator],-30%,·
COC(=O)[C@@H]1CC[C@H](C)[C@@H](c2ccc(C)cc2)N1C(=O)c1ccc(/C=N/O[C@H](C)c2cn([C@@H]3COC[C@H]3O)nn2)cc1,-9%,-10%,·,?,1%,·,-10%,?
O=c1[nH]c(COc2ccc(Br)cc2Cl)nc2ccccc12,2%,·,3%,1%[46.1 µM],3%[46.1 µM],3%,1%,·
CC(=O)c1cc2c(ccc3ccccc32)oc1=O,0%,·,-14%,22%,-8%,1%,-12%,·
CCc1cc(/C(Cc2ccccn2)=N\O)c(O)cc1O,13%,5.1%,4%,-3%,-2%,-23%,5%,4%
COc1cc(NC(=O)c2cc3ccccc3o2)c(OC)cc1Br,11%,-4.3%,0%,?,?,-27%,10%,1%
Cc1ccccc1CN1C(=O)c2ccccc2Sc2ccc(C(=O)NCCc3ccccc3)cc21,·,1.4%,·,?,·,-1%,·,?
CC(C)C(c1nnnn1Cc1cccs1)N1CCN(c2ccccc2)CC1 (stereo not given),12%,-3.1%,-21%,1%,?,-21%,-6%,0%
O=C(NCc1cccnc1)c1cc(S(=O)(=O)N2CCOCC2)c(Cl)cc1Cl,3%,·,-19%,1%,9%[46.1 µM],-11%,·,·
Cc1cccc(NC(=O)CN2C(=O)/C(=C3\SC(=S)N(CC4CCCO4)C3=O)c3ccccc32)c1 (stereo not given),-3%,·,-4%,·,·,-17%,-4%,·
N=c1n(Cc2ccccc2)c2ccccc2n1CC(O)COc1ccccc1 (stereo not given),22µM*,-1.7%,11%,?,3.7µM*,?,-5%,10%
Cc1ccc(S(=O)(=O)N2CCCc3ccccc32)cc1C,-8%,·,8%,-1%,-24%,17%,-21%,·
CC(C)n1c(=O)[nH][nH]c1=S,1%,·,23%,13%,-2%[46.1 µM],-5%,2%,·
CCc1ccc(NS(=O)(=O)c2cc3[nH]c(=O)c(=O)[nH]c3cc2C)cc1,4%,·,3%,·,·,5%,20%,·
COCCn1c(SCC(=O)NC2CCCCC2)nnc1-c1ccco1,-3%,·,4%,-4%,-22%[46.1 µM],-3%,-4%,·
Cn1nc(C(=O)Nc2ccc(S(=O)(=O)N3CCCCC3)cc2)ccc1=O,2%,0.4%,5%,-25%,-27%,?,-5%,1%
COc1cccc(NC(=O)CN(C)CC(=O)NC(C)c2ccccc2)c1 (stereo not given),0%,·,10%,·,·,2%,7%,·
CSc1ccccc1NC(=O)CN1CCCCC1,-1%,·,11%,·,8%[46.1 µM],-7%,·,·
COc1cc(/C=c2/sc3nc(-c4ccccc4)c(-c4ccccc4)n3c2=O)cc(OC)c1OC,-14%,-2.5%,6%,4%,?,-27%,5%,0%
COc1ccccc1NC(CC(=O)c1ccccc1)C(=O)OCC(=O)c1ccc(Br)cc1 (stereo not given),14%,-6.0%,-8%,5%,?,26%,12%,?
O=C(NCC(c1ccco1)S(=O)(=O)c1cccs1)c1ccc(F)c(F)c1 (stereo not given),·,-1.3%,·,-18%[46.1 µM],·,-20%,·,4%

# 3 entries already listed, sorted by molar mass, smallest number first:
SMILES,SARS PLpro yeast,Cruzain inh Det,RE007 growth inh,Lassa entry inh,Marburg entry inh,StopGo reporter,NS1 inh,Cruzain noTriton
O=C(NCC(c1ccco1)S(=O)(=O)c1cccs1)c1ccc(F)c(F)c1 (stereo not given),·,-1.3%,·,-18%[46.1 µM],·,-20%,·,4%
COc1cc(/C=c2/sc3nc(-c4ccccc4)c(-c4ccccc4)n3c2=O)cc(OC)c1OC,-14%,-2.5%,6%,4%,?,-27%,5%,0%
COc1ccccc1NC(CC(=O)c1ccccc1)C(=O)OCC(=O)c1ccc(Br)cc1 (stereo not given),14%,-6.0%,-8%,5%,?,26%,12%,?

# (cont.)
SMILES,SARS PLpro yeast,Cruzain inh Det,RE007 growth inh,Lassa entry inh,Marburg entry inh,StopGo reporter,NS1 inh,Cruzain noTriton
Cc1ccc(/C(O)=C/C(=O)C(=O)NNC(=O)C(O)(c2ccccc2)c2ccccc2)cc1,-29%,-14%,5%,-3%,-15%,·,?,?
CCN(CC(=O)NCc1ccc(F)cc1)CC(O)COCc1cccc(OC)c1 (stereo not given),-2%,4.6%,0%,22%,6%,-1%,-7%,9%
CSc1nccc(Oc2cncc(Cl)c2)n1,11%,-3.4%,3%,3%,?,-7%,16%,2%
Cc1nc(CN2CCC(c3ccccc3)CC2)cc(=O)[nH]1,0%,·,-12%,-1%,-1%[46.1 µM],-1%,4%,·
